# Screens: PubChem BioAssay, The Scripps Research Institute Molecular Screening Center
# GSTO1 inh: inhibitors of recombinant GSTO1, primary screen, counter-screen for RBBP9 inhibitor project, biochemical, fluorescence polarization; Glutathione S-transferase omega-1 (Homo sapiens), P78417; activity-based probe fluorescence polarization; inhibition, % at 5.96 µM; 300,000 tested, 1.1% active; AID 1974, 2009;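 active means inhibition above the campaign mean inhibition plus 3 SD, cut at about 35% in these data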;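 further: 0% = GSTO1-1 with DMSO and 100% = wells lacking GSTO1-1 enzyme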
# Target sequence (P78417 whole entry, looked up): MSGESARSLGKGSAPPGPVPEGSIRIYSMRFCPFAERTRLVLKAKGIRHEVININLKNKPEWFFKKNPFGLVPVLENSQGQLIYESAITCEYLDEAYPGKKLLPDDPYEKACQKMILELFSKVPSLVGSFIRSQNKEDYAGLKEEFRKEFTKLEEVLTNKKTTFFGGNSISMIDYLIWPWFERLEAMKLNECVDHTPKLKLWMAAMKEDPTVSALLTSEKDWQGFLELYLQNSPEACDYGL
# LYPLA1 counter: LYPLA1 inhibitors, primary screen, counter-screen for PME1 inhibitor project, biochemical, fluorescence polarization, FP-Rh probe ABPP | 320,000 tested, 0.16% active | recombinant LYPLA1 | Acyl-protein thioesterase 1 (Homo sapiens), O75608 | inhibition, % at 5.9 µM;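 active means inhibition above the mean of all tested compounds plus 3 SD, set per campaign, cut at about 14% in these data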;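 further: inhibitors block serine hydrolase probe labeling of LYPLA1 so polarization falls; 0% = enzyme with DMSO and 100% = wells lacking LYPLA1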
# PAD4 FP inh: human PAD4 inhibitors, primary screen, biochemical, fluorescence polarization, 1536-well format; Protein-arginine deiminase type-4 (Homo sapiens), Q9UM07; recombinant PAD4, RCA probe fluorescence polarization; inhibition, % at 6.36 µM; 330,000 tested, 0.41% active; AID 485272, 2010;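 active means percent inhibition above a cutoff equal to the mean of all tested compounds plus 3 SD, cut at about 15% in these data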;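 further: 0% = PAD4 with RCA probe and DMSO and 100% = probe without PAD4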
# PAFAH2 inh: PAFAH2 enzyme inhibitors, primary screen, biochemical, fluorescence polarization, human; AID 492956, 2010; Platelet-activating factor acetylhydrolase 2, cytoplasmic (Homo sapiens), Q99487; inhibition, % at 3.39 µM; recombinant PAFAH2, FP-rhodamine activity probe; 340,000 tested, 0.99% active;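 active means inhibition above the mean over all tested compounds plus 3 SD, cut at about 30% in these data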;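 further: inhibitors block probe labeling of enzyme so polarization drops; 0% = enzyme with DMSO and 100% = wells lacking PAFAH2 protein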
# pPAFAH FP inh: pPAFAH enzyme inhibitors, primary screen, biochemical, fluorescence polarization, human. inhibition, % at 3.39 µM. Platelet-activating factor acetylhydrolase (Homo sapiens), Q13093. 330,000 tested, 1.5% active. recombinant pPAFAH, FP-rhodamine probe fluorescence polarization;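 active means inhibition above the mean inhibition across the screen plus 3 SD, cut at about 25% in these data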;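 further: inhibitors block binding of the rhodamine activity-based probe so polarization drops; 0% = enzyme with DMSO and 100% = wells lacking pPAFAH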
# Target sequence (Q13093 whole entry, looked up): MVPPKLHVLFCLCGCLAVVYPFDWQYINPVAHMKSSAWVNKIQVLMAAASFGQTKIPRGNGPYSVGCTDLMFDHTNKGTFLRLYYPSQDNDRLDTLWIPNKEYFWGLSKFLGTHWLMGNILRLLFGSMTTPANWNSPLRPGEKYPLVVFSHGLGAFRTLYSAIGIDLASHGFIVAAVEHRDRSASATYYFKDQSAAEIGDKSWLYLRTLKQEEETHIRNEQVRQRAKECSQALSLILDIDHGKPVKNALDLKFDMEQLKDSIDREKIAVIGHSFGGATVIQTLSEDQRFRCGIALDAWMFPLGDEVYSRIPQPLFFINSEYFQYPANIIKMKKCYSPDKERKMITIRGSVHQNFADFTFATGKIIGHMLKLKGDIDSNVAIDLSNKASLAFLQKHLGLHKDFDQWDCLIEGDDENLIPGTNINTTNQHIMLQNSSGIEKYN
# LYPLA2 counter: LYPLA2 inhibitors, primary screen, counter-screen for PME1 inhibitor project, biochemical, fluorescence polarization, FP-Rh probe ABPP | Acyl-protein thioesterase 2 (Homo sapiens), O95372 | recombinant LYPLA2 | inhibition, % at 5.9 µM | 320,000 tested, 0.38% active;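 active means inhibition above the screen-wide mean plus 3 SD, limit set per campaign, cut at about 26% in these data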;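 further: 0% = LYPLA2 with DMSO and 100% = wells lacking LYPLA2 enzyme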
# Target sequence (O95372 whole entry, looked up): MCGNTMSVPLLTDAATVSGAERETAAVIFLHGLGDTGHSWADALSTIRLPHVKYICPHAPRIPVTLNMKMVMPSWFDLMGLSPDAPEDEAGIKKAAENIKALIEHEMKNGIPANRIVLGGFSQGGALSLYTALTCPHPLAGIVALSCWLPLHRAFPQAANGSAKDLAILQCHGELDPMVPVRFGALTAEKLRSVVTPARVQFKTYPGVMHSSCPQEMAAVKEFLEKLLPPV
# PME-1 primary: PME-1 inhibitors via competitive probe labeling, primary screen, biochemical, fluorescence polarization, FP-Rh probe, HTS; Protein phosphatase methylesterase 1 (Homo sapiens), Q9Y570; AID 2130, 2009; recombinant PME-1; inhibition, % at 5.9 µM; 320,000 tested, 0.53% active;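 active means inhibition above the campaign mean of all compounds plus 3 SD, cut at about 26% in these data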;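 further: competitive labeling of PME-1 active site by serine hydrolase directed probe; 0% = PME-1 with DMSO and 100% = wells lacking PME-1 enzyme; inhibitors block probe labeling so polarization falls and inhibition rises; many of its hits are not listed in these tables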
# PAFAH1B3 inh: PAFAH1B3 enzyme inhibitors, primary screen, biochemical, fluorescence polarization, human; Platelet-activating factor acetylhydrolase IB subunit alpha1 (Homo sapiens), Q15102; recombinant PAFAH1B3, FP-rhodamine probe; inhibition, % at 3.39 µM; 340,000 tested, 0.28% active; AID 492972, 2010;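 active means inhibition above the screen-wide average of all tested compounds plus 3 SD, cut at about 25% in these data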;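 further: 0% = enzyme with DMSO only and 100% = wells lacking PAFAH1B3 protein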
# Active calls of the source: *; . = not tested or not shown. Only part of the results is shown, so the mix of outcomes need not match the whole.
entry	Molecule	GSTO1 inh	LYPLA1 counter	PAD4 FP inh	PAFAH2 inh	pPAFAH FP inh	LYPLA2 counter	PME-1 primary	PAFAH1B3 inh
1	CCOC(=O)CSc1cc(=O)n(CC)c2ccccc12	6	-2	0	-6	3	-4	1	5
2	O=C(CCc1ccccc1)NCCS(=O)(=O)N1CCN(c2ccccc2)CC1	1	2	-3	6	-4	5	7	2
3	O=C(COC(=O)COc1ccc(Cl)cc1)NCCNC(=O)COC(=O)COc1ccc(Cl)cc1	1	-2	3	5	15	0	1	10
4	CCCOc1nc(N)c(C#N)c(-c2ccccc2F)c1C#N	.	.	.	-2	.	.	.	8
5	Nc1c(C(O)(C(F)(F)F)C(F)(F)F)ccc2ccccc12	.	.	.	2	.	.	.	-5
6	CC(=O)NC(CC(=O)OCC(=O)N1CCN(S(=O)(=O)c2ccc(Cl)cc2)CC1)c1ccccc1 (centres undefined)	7	4	1	4	5	0	1	4
7	Cc1ccc(C)c(-n2c(CNc3ccc(F)cc3)nnc2SCC(N)=O)c1	-6	0	5	12	3	-5	-1	7
8	CCNC(=O)c1ccccc1NC(=O)c1cccc(S(=O)(=O)N2CCC(C)CC2)c1	-12	-7	-1	-4	2	-1	-6	6
9	O=C(N1CCN(S(=O)(=O)c2ccc(Cl)cc2)CC1)n1ccnc1	.	.	-7	20	4	.	.	11
10	C=CCNC(=O)C1CC(c2cccc(OC)c2)=NO1 (centres undefined)	11	2	-3	1	-1	1	6	2
11	CC1CCN(S(=O)(=O)c2nnc(NC(=O)c3cccc([N+](=O)[O-])c3)s2)CC1	-132	1	-6	12	12	6	-3	15
12	CN1CCN(C(=O)c2ccc3c(=O)n(CCc4ccccc4)c(=S)[nH]c3c2)CC1	12	0	0	6	1	4	6	0
13	COc1cccc(C(CNc2ccc(S(=O)(=O)N3CCN(C)CC3)cc2[N+](=O)[O-])N(C)C)c1 (centres undefined)	.	.	.	-3	.	.	.	8
14	CCC(C(=O)O/N=C(\N)c1ccc(Cl)cc1)c1ccccc1 (centres undefined)	4	-2	1	1	-1	-4	2	8
15	CC1(C)CC2C1CCC1(O)CC2(C)CCC1N(O)c1ccc(C(=O)NCCO)cn1 (centres undefined)	.	3	0	1	4	5	3	17
16	O=C(O)c1sccc1Oc1ccc(NS(=O)(=O)c2ccc(Cl)cc2)cc1	29	-1	1	8	14	8	-1	10
17	NC(=S)N/N=C/c1ccccc1OCCSc1ccc(Cl)cc1	-5	-19	-3	-11	16	-16	-19	-2
18	CC1CCN(S(=O)(=O)c2nnc(NC(=O)COc3ccccc3F)s2)CC1	-24	-5	1	5	-2	-10	-2	9
19	O=C(Nc1ncc(S(=O)(=O)c2ccc([N+](=O)[O-])cc2)s1)c1ccccc1F	-36	-1	-4	0	1	-1	8	7
20	NC(=O)c1ccc(NC(=O)COC(=O)C2(c3cccc(F)c3)CCCC2)cc1	-4	-3	-2	-2	2	-3	3	-4
21	O=[N+]([O-])c1ccc2c(c1)C(N1CCOCC1)/C(=C/COc1ccc(F)cc1)O2 (centres undefined)	-8	0	-3	2	2	0	4	6
22	Cc1ccc(S(=O)(=O)N2[C@@H](c3ccccc3F)C(C(=O)O)=CC[C@H]2c2cccc(C)c2)cc1	-4	-2	6	5	0	0	-6	-6
23	NC(=O)C1CCN(C(=O)CCSc2ccc(Cl)cc2)CC1	-6	0	1	9	4	-7	3	9
24	COc1cc(C(C)=O)ccc1OC(C)C(=O)Nc1ccc(S(=O)(=O)N2CCCC2)cc1 (centres undefined)	.	-2	-1	8	-1	6	2	0
25	Cc1ccc([C@@H]2CC=C(C(=O)O)[C@H](c3ccc(F)cc3)N2S(=O)(=O)c2ccccc2C)cc1	.	.	-2	1	-3	.	.	3
26	CC(=O)/C(C(=N)N1CCN(c2cccc(Cl)c2)CC1)=C(\C)O	1	-2	-1	5	-5	-1	-4	-2
27	CC1C(=O)CCCCCCCCCC2C1(N1CCOCC1)CS2(=O)=O (centres undefined)	7	-3	0	4	5	-3	-6	9
28	Cc1ccc(S(=O)(=O)NC(=O)COc2ccc(Cl)cc2Cl)cc1	2	-2	0	0	-1	-2	2	1
29	COc1ccc(OC)c(/C=C/C(=O)OCC(=O)N2CCN(S(=O)(=O)c3ccc(C)cc3C)CC2)c1	.	.	.	5	.	.	.	1
30	O=C(O)C1=CC[C@@H](c2ccc(Cl)cc2)N(S(=O)(=O)c2ccc(Cl)cc2)[C@H]1c1ccc(F)cc1	-83	1	-2	0	13	8	-4	3
31	Nc1cc(=O)[nH]c(SCc2nnnn2-c2ccc(Cl)cc2)n1	0	-3	1	5	-1	1	-6	5
32	Cc1ccc(NC(=O)COC(=O)C2(c3ccc(Cl)cc3)CCCC2)cc1	-6	-14	-9	-8	-4	-17	-6	3
33	Cn1nc(C(F)(F)F)c(/C=N/OC(=O)c2ccccc2Cl)c1SCc1ccc(Cl)cc1	-1	-7	3	3	-4	-7	-7	-1
34	Cc1ccc(Oc2ccc(OCC(=O)NC(CC(C)C)C(=O)O)cc2)cc1 (centres undefined)	38*	-3	-2	3	15	-2	-11	5
35	Cc1ccc(S(=O)(=O)N2[C@@H](c3ccc(C(C)(C)C)cc3)C(C(=O)O)=CC[C@H]2c2cccs2)cc1	.	.	-2	9	23	.	.	4
36	CC(C)OCCCNC(=O)CCSc1ccc(Cl)cc1	1	2	0	5	1	5	1	-6
37	O=C(CN1CCN(S(=O)(=O)c2ccc(Br)cc2)CC1)Nc1ccccc1F	4	2	-1	4	-3	5	5	3
38	CN(C(=O)c1ccccc1C(=O)OCC(=O)c1ccc(Br)cc1)c1ccccc1	30	0	0	4	-1	-3	1	3
39	Cc1ccc(S(=O)(=O)N2[C@@H](c3ccccc3F)C(C(=O)O)=CC[C@H]2c2cccc(Cl)c2)cc1	-29	-2	-1	4	-6	2	0	6
40	Fc1ccc(-n2c(Cc3ccccc3)nnc2SCc2nc(-c3ccc(Cl)cc3)no2)cc1	17	0	1	1	8	4	-7	-1
41	Cc1cc2ccccc2n2c(SCC(=O)Nc3ccc(S(=O)(=O)N4CCC(C)CC4)cc3)nnc12	1	3	-8	-37	-8	-2	-5	-20
42	CN(C)c1ccc(/C=N/n2c(-c3cccnc3)n[nH]c2=S)cc1	3	2	-4	1	3	2	-2	7
43	O=C(NCC(NS(=O)(=O)OCC(Cl)(Cl)Cl)c1ccccc1)C(F)(F)F (centres undefined)	14	1	5	-6	1	4	0	-3
44	Cc1ccc(S(=O)(=O)N2CCC(C(=O)NNS(=O)(=O)c3ccc(Cl)cc3)CC2)cc1	0	-3	-1	4	5	5	1	0
45	O=S(=O)(Cc1nnnn1-c1ccc(Br)cc1)c1ccc(F)cc1	10	2	0	1	2	3	-9	4
46	Cc1ccc([C@H]2C(C(=O)O)=CC[C@@H](c3ccc(Cl)c(Cl)c3)N2S(=O)(=O)c2ccc(C)cc2)cc1	.	.	-6	-10	12	.	.	1
47	CCn1c(SCC#N)nc2c(c1=O)C1(CCCC1)Cc1ccccc1-2	-3	3	0	2	6	8	-3	-5
48	CCC(C)(CC(=O)Nc1nccs1)c1ccccc1 (centres undefined)	5	2	3	0	3	5	-1	-1
49	O=C(c1ccc(F)cc1)C(CN1CCOCC1)c1ccccc1 (centres undefined)	-10	-3	-4	-2	-1	-5	-6	11
50	O=C(Nc1ccc(S(=O)(=O)N2CCOCC2)cc1)C1CCN(S(=O)(=O)c2ccc(Cl)cc2)CC1	.	.	.	-3	.	.	.	6
51	Cc1ccc(O)c(NC(=O)c2cccc(S(=O)(=O)N3CCCCC3)c2)c1	-8	-1	-3	8	-4	-10	1	-3
52	CCN(C(=O)c1cc(S(=O)(=O)N2CCc3ccccc32)cn1C)c1ccccc1	-2	0	-1	0	3	-1	9	9
53	CCCCc1ccc(S(=O)(=O)NNC(=S)NCc2ccco2)cc1	6	1	-1	8	7	-11	0	7
54	O=C(CSc1ccc(F)cc1)NCCc1ccc(Cl)cc1	-3	0	2	0	8	-6	-4	2
55	O=C(Cc1cccs1)N(c1ccc(F)cc1)C1(C(=O)NC2CCCCC2)CCCC1	6	2	3	5	-5	2	-16	7
56	O=C(CCCn1c(=O)[nH]c2cc(Cl)ccc2c1=O)NCCC1=CCCCC1	4	4	-4	-5	5	2	2	2
57	O=c1[nH]cnc2nc(-c3ccccc3)c(-c3ccccc3)nc12	-4	2	-7	-4	-3	11	1	1
58	Nc1ccccc1SCc1cn2cccnc2n1	5	-1	5	5	5	4	-1	4
59	CCCCCCCCN1C(=O)C(O)=C(C(C)=O)C1c1ccccn1 (centres undefined)	5	0	-5	0	5	5	2	16
60	O=C(CCSc1ccc(Cl)cc1)NC12CC3CC(CC(C3)C1)C2	3	-4	3	7	1	-11	-4	12

# Some of these compounds in order of SMILES length, ascending:
entry	Molecule	GSTO1 inh	LYPLA1 counter	PAD4 FP inh	PAFAH2 inh	pPAFAH FP inh	LYPLA2 counter	PME-1 primary	PAFAH1B3 inh
49	O=C(c1ccc(F)cc1)C(CN1CCOCC1)c1ccccc1 (centres undefined)	-10	-3	-4	-2	-1	-5	-6	11
60	O=C(CCSc1ccc(Cl)cc1)NC12CC3CC(CC(C3)C1)C2	3	-4	3	7	1	-11	-4	12
46	Cc1ccc([C@H]2C(C(=O)O)=CC[C@@H](c3ccc(Cl)c(Cl)c3)N2S(=O)(=O)c2ccc(C)cc2)cc1	.	.	-6	-10	12	.	.	1

# Additional results.
entry	Molecule	GSTO1 inh	LYPLA1 counter	PAD4 FP inh	PAFAH2 inh	pPAFAH FP inh	LYPLA2 counter	PME-1 primary	PAFAH1B3 inh
61	Cc1ccc(CSCCNC(=O)CN2C(=O)c3ccccc3S2(=O)=O)cc1	1	-2	-5	4	8	9	1	-3
62	O=C(O)c1cc(S(=O)(=O)Nc2cc(Cl)ccc2Oc2ccccc2)ccc1O	.	0	-9	7	3	-2	-8	2
63	CC(C)c1ccccc1NC(=S)NCc1ccccc1F	0	-3	-1	11	2	-9	-4	5
64	Cc1ccc(S(=O)(=O)CC(=O)NCc2ccc(Cl)cc2)cc1	.	-4	-1	1	1	-4	-4	-2
65	O=C(NCc1ccc(Cl)cc1)C(=O)NCC1OCCN1S(=O)(=O)c1cccs1 (centres undefined)	-4	-1	2	8	12	-2	-1	-3
66	O=C(O)CC(NC(=O)C12CC3CC(CC(C3)C1)C2)c1ccc(Cl)cc1 (centres undefined)	2	0	-3	5	3	3	0	6
67	N#CC1=C(N)NC(SCc2ccc(Br)cc2)=C(C#N)C12CCCCC2	-53	-6	3	3	11	7	12	13
68	O=S(=O)(Nc1ccccc1OC(F)F)c1ccc(S(=O)(=O)N2CCCC2)cc1	.	0	-4	-2	-2	2	5	7
69	Cc1ccccc1C(=O)NNC(=S)NC(=O)c1ccc(Cl)cc1Cl	-4	-2	2	1	4	-1	3	3
70	CCCCN(c1ccccc1)S(=O)(=O)c1cccc(C(=O)O)c1	10	2	-1	-5	0	5	4	-3

# Results in sequence from above.
# Compounds 64 to 68 in PAD4 FP inh: -1, 2, -3, 3, -4
# Compounds 64 to 68 in pPAFAH FP inh: 1, 12, 3, 11, -2
# Compounds 64 to 68 in LYPLA2 counter: -4, -2, 3, 7, 2
